Bioassay records (PubChem)
MT1-MMP act inh: MT1-MMP (human) activation inhibition. P50281. HT1080 RFP-PRO-GFP cells, GFP/RFP ratio fluorescence, overnight; percent of plate control window, DMSO zero. GFP/RFP ratio change, % at 20 µM. actives 0.061% (n = 360,000). AID 651647;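 active = GFP/RFP ratio change of at least 30% with cell ATP level not reduced by more than half and red fluorescence within 50% of control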; note: strong numbers were not always called active
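Material: RFP-PRO-GFP reporter HT1080 cells. Dosing: single-point 20 µM compound, 1% DMSO. Controls: DMSO and RFP-L50D-GFP cell wells. Timing: cells overnight before dosing, compound overnight, 37 °C, 5% CO2. Measure: GFP/RFP fluorescence ratio.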
Rce1 inhib: inhibitors of yeast Ras-converting enzyme | AID 2563 | yeast membranes, quenched prenylated peptide cleavage fluorescence | actives 0.27% (n = 290,000) | calls only | Q03530;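 active = fall in fluorescence gain of 50% or more versus controls, with final raw signal at or below 3038400; inconclusive = same 50% fall but final raw signal above 3038400; inactive = fall in fluorescence gain under 50%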;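 note: plate controls were neutral control wells for no effect and wells lacking membranes for full effect; tested at 10 µM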
Target sequence (Q03530 whole entry, looked up): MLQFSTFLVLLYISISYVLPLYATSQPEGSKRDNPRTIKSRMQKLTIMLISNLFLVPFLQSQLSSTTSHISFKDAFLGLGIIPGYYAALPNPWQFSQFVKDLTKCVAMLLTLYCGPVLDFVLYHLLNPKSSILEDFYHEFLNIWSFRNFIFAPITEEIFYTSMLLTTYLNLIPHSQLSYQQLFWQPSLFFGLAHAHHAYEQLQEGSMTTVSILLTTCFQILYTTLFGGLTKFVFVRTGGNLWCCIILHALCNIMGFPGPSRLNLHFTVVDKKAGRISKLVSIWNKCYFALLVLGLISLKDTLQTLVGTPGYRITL
eIF4H FP inh: inhibitors of RNA binding by human eIF4H; Q15056; eIF4H fluorescence polarization binding assay; inhibition, % at 35 µM; actives 0.94% (n = 290,000); AID 2012;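 active = 50% or more with normal probe brightness, or confirmed in later tests; inconclusive = above 50% with abnormal brightness, or retests that disagree; inactive = below 50% or failed in later tests; about a fifth of its hits are not listed in these tables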;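 note: calls also rest on retests at 20 µM and on dose response follow-up; 0% = protein and probe with vehicle and 100% = probe without protein; strong numbers were not always called active; many hits fall short of the cut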
CSC inhib: cancer stem cell inhibition | inhibition, % at 7.5 µM | actives 1.1% (n = 300,000) | cancer stem cell-like cells viability, luminescence;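 active = mean at 75% or more and at least half the replicates too; inconclusive = mean and replicates disagree; tested in HMLE shEcad cells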;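 note: 0% = median of negative and 100% = median of positive control wells; the first replicate is given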
Env fusion inh: HIV envelope-mediated fusion inhibition; HeLa-JRFL Env/CEM21 cell fusion, luciferase; inhibition, % at 12.3 µM; actives 1.1% (n = 360,000);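 active = mean replicate inhibition score of at least 50 and every replicate individually at or above 50; inconclusive = only one of the two criteria met; inactive = mean below 50 and not all replicates reaching 50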;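 note: 0% = plate neutral controls and 100% = maraviroc near 300 nM; one replicate is shown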
PABP FP inh: blocks human PABP binding to poly(A) RNA; P11940; fluorescence polarization; inhibition, % at 35 µM; actives 1% (n = 290,000);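 active = 50% or more with normal probe brightness, or confirmed in later tests; inconclusive = above 50% with abnormal brightness, or retests that disagree; inactive = below 50% or failed in later tests; about a fifth of its hits are not listed in these tables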;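 note: calls also rest on retests at 20 µM and on dose response follow-up; controls were probe without protein and protein plus probe with vehicle; some compounds called inactive have numbers as strong as hits; many hits fall short of the cut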
Target sequence (P11940 whole entry, looked up): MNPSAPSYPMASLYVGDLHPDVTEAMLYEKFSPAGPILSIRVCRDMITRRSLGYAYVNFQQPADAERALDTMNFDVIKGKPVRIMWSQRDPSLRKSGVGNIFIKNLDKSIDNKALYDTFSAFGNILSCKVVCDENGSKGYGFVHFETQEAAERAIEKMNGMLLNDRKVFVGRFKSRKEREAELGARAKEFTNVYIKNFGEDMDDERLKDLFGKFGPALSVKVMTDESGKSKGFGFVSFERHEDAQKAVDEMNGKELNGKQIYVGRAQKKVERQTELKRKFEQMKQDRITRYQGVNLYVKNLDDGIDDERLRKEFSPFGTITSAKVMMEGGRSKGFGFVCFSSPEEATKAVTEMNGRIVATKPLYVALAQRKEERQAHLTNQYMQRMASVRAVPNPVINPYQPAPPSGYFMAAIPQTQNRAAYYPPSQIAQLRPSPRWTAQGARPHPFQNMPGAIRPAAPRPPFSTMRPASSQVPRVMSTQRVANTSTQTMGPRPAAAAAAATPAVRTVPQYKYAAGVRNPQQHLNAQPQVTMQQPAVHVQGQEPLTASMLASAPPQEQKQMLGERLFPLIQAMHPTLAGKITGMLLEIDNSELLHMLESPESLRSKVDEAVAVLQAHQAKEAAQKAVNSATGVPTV
Yeast UUG start: modulators of start codon recognition fidelity in yeast; AID 602363; activity score, % at 18.7 µM; S. cerevisiae UUG-firefly luciferase reporter, luminescence/redox ratio; actives 0.13% (n = 350,000);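 active = replicate mean at a twofold rise or more, about +100% in these data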;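 note: firefly luciferase made from a UUG start codon reports start codon fidelity; reporter light over untreated wells divided by growth signal over untreated wells; some hits fall short of that in this replicate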
MT1-MMP act inh RFP: recorded beside MT1-MMP act inh, whose call it bears; RFP signal change, %; measured here: RFP expression control read;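 0 = vehicle wells; hits needed this value within 50% of zero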
The depositor's hits bear a star; i = inactive; ? = inconclusive; · = not tested or not shown.

SMILES	MT1-MMP act inh	MT1-MMP act inh RFP	Rce1 inhib	eIF4H FP inh	CSC inhib	Env fusion inh	PABP FP inh	Yeast UUG start
CCN(Cc1ccccc1)S(=O)(=O)c1c(C)[nH]c(C)c1C(=O)N1CCCC1	-2	3	i	-5	9	8	-3	-5
O=C(O)CCC(=O)N1CCN(S(=O)(=O)c2cccs2)CC1	0	5	i	-9	0	13	2	-8
CC(=O)N1CCN(c2ccccc2NC(=O)c2ccc(C#N)cc2F)CC1	3	3	i	-2	-17	7	0	·
Cc1cccc(CC2CC(=O)N(c3ccc(C)cc3Br)C2=O)c1 (stereo unspecified)	-4	-3	i	-8	4	10	-9	-1
Cn1c(-c2cccc([N+](=O)[O-])c2)cnc1NCc1cccc([N+](=O)[O-])c1	5	2	i	-7	7	-5	3	·
CCCCC(=O)N(C)c1c(CC)nc2c(OCCOc3ccccc3)cccn12	-4	-4	·	·	·	24	·	-9
COc1ccc(CNC(=O)CSc2nc3[nH]ncc3c(=O)n2-c2ccccc2Br)cc1	·	·	i	6	-11	·	-6	·
CC(C)CC(=O)NCCNC(=O)c1cc(OCC(F)(F)F)ccc1OCC(F)(F)F	-11	-4	i	9	-9	·	4	-8
O=C(CSc1ccncc1)Nc1ccc2ccccc2c1	4	-3	i	-2	-5	-10	?	·
CN1C2CCC1CC(NC(=O)c1cccc(C(F)(F)F)c1)C2 (stereo unspecified)	-2	1	i	-10	-7	4	2	-21
O=C(Nc1nc(-c2ccccc2)c(C(=O)c2ccccc2)s1)c1ccc(S(=O)(=O)N2CCCC2)cc1	4	-13	i	4	27	1	-11	-13
COc1ccccc1NC(=O)Nc1nc(CC(=O)Nc2ccc(OC)c(OC)c2)cs1	13	-1	i	·	-10	-1	·	-5
Cc1ccccc1C(=O)c1cccn1CC(=O)NCCCN1CC(C)CC(C)C1 (stereo unspecified)	1	6	i	-1	·	11	6	·
CCOC(=O)c1ccc(NC(=O)CSc2nnc(CNC(=O)c3ccco3)o2)cc1	-1	1	i	-15	-3	-5	1	-11
CCN1CCc2c(OCC(=O)Nc3ccc4c(c3)OCCO4)cccc2C1=O	·	·	i	9	5	·	-6	·

Look-ups from the list:
`CC(=O)N1CCN(c2ccccc2NC(=O)c2ccc(C#N)cc2F)CC1` in PABP FP inh → 0
`Cc1ccccc1C(=O)c1cccn1CC(=O)NCCCN1CC(C)CC(C)C1` (stereo unspecified) in MT1-MMP act inh → 1
`Cn1c(-c2cccc([N+](=O)[O-])c2)cnc1NCc1cccc([N+](=O)[O-])c1` in Env fusion inh → -5

(list continues)
SMILES	MT1-MMP act inh	MT1-MMP act inh RFP	Rce1 inhib	eIF4H FP inh	CSC inhib	Env fusion inh	PABP FP inh	Yeast UUG start
O=S(=O)(Nc1ccc(S(=O)(=O)Nc2ncccn2)cc1)c1ccccc1	3	6	i	-2	·	-5	-2	-12
CC(C)(O)C#Cc1ccc(C(=O)N2CCN(c3ccc(Cl)cc3)CC2)cc1	4	1	i	1	-2	-8	-3	·
CCOC(=O)C1CCN(S(=O)(=O)c2ccc(-c3ccccn3)s2)CC1	3	-9	i	-12	-2	-3	-2	-15
OC1(c2ccc3c(c2)OCO3)CCN(Cc2ccccn2)CC1	1	3	i	-2	-9	-12	12	8
CSc1ccc(/C=C(/NC(=O)c2ccco2)C(=O)N2CCCCCC2)cc1	-1	4	i	-6	-9	·	4	9
CN=C1NN=C(c2cc(C)n(-c3ccc(Cl)cc3)c2C)CS1	-8	-2	i	-7	-6	-56	-4	·
CS(=O)(=O)NN1C(=O)c2ccccc2NC1c1ccccc1 (stereo unspecified)	-1	-2	·	1	-4	-5	6	·
CCC(C)NS(=O)(=O)c1ccc(OCC(=O)NCc2cccnc2)cc1 (stereo unspecified)	-1	5	i	-9	-13	-11	7	-17
O=C(CCCCC(=O)OCC1COCO1)OCC1COCO1 (stereo unspecified)	1	3	·	·	·	-33	·	-16
Cc1nc2ccccc2n1CCC(=O)O	-1	1	i	-10	-5	-32	3	-20
CC(=O)O/N=C(\N)Cc1ccc(-c2csnn2)cc1	-5	-1	i	46	1	12	20	·
CNC(=O)CSc1nc2[nH]ncc2c(=O)[nH]1	-3	5	i	-4	-8	0	-1	·
Cc1ccc(NC(=O)C2CCCN2S(=O)(=O)c2ccc3c(c2)n(C)c(=O)c(=O)n3C)c(C)c1 (stereo unspecified)	0	9	i	-1	-16	6	3	-8
Cn1nc(C(F)(F)F)c(-c2cccc(C(F)(F)F)c2)c1NC(=O)c1ccco1	4	3	i	-4	5	11	-1	-8
CC(=O)c1cc(CC=C(C)C)c(O)c(CC=C(C)C)c1O	1	-1	i	-10	3	·	1	-46
CCOc1ccc(CCN2C(=O)C(=O)N([C@@H](Cc3ccccc3)CN3CCC[C@@H]3CN3C(=O)C(=O)NC[C@@H]3Cc3ccc(O)cc3)C[C@@H]2Cc2ccccc2)cc1	5	3	·	·	·	30	·	-8
Cc1cccc(N2CC(C(=O)Nc3cccc(S(=O)(=O)N4CCCCC4)c3)CC2=O)c1C (stereo unspecified)	3	-17	·	·	-24	11	·	-10
Cc1cnc(CN(C)C(=O)c2cc(COc3c(F)cccc3F)on2)[nH]1	2	1	i	1	-15	14	5	·
Cc1ccc(C(=O)Nc2ccccc2NC(=O)c2ccc(C)o2)o1	4	3	·	1	·	·	16	-7
Cc1cc(OC(C)C(=O)NCCN2CCOCC2)c2c(C)cc(=O)oc2c1 (stereo unspecified)	3	5	i	7	-2	-23	4	-5
COc1cccc(CN2C(=O)CN(C3CCCCC3)C(=O)C2c2ccc(F)cc2)c1 (stereo unspecified)	-1	-5	i	-12	0	-25	-5	-22
NS(=O)(=O)c1ccc(CCNC(=O)NC2CCCCC2)cc1	-2	0	i	3	-19	2	-6	·
Nc1nonc1C(=O)N/N=C/c1cc(Br)ccc1O	·	·	·	12	10	-53	-3	·
OCc1cccc(-c2csc(C(O)c3ccco3)n2)c1 (stereo unspecified)	-2	6	·	·	·	-10	·	-17
CCOC(=O)c1c(C)nc2sc(C(N)=O)c(N)c2c1-c1ccc(OC)cc1	-6	-8	i	-1	12	·	-15	-7
O=C(c1ccncc1)N1CCN(c2ccc3ccccc3n2)CC1	1	-3	i	-2	5	1	-13	·
COc1cc(/C=C/CNC[C@H]2O[C@@H](n3ccc(=O)[nH]c3=O)[C@H](O)[C@@H]2O)ccc1O	5	7	·	·	·	-12	·	-14
CCCCCCCC1=CC2=CC(=O)C(C)(OC(C)=O)C(=O)C2=CN1CCc1ccccc1 (stereo unspecified)	·	·	i	12	-20	·	21	·
CCCCCCCCS(=O)CCC(=O)O (stereo unspecified)	2	1	i	13	-15	10	-4	·
CCn1cc([N+](=O)[O-])c(C(=O)N2N=C(c3ccc(OC)cc3OC)CC2c2ccccc2O)n1 (stereo unspecified)	7	3	i	10	0	6	9	-28

The list goes on, overlapping the part above by 2 compounds.
SMILES	MT1-MMP act inh	MT1-MMP act inh RFP	Rce1 inhib	eIF4H FP inh	CSC inhib	Env fusion inh	PABP FP inh	Yeast UUG start
CCCCCCCCS(=O)CCC(=O)O (stereo unspecified)	2	1	i	13	-15	10	-4	·
CCn1cc([N+](=O)[O-])c(C(=O)N2N=C(c3ccc(OC)cc3OC)CC2c2ccccc2O)n1 (stereo unspecified)	7	3	i	10	0	6	9	-28
S=c1[nH]nc(-c2cc(-c3ccccc3)n[nH]2)n1/N=C/C=C/c1ccccc1	7	0	·	-4	10	11	2	-11
O=C1Nc2cc(Cl)c(Cl)cc2N(O)N1c1ccccc1	10	2	i	9	-16	-42	9	-14
Cc1nn(C)c(C)c1CN(Cc1nc(CCC(C)C)no1)C(C)C	10	-24	i	2	-1	19	-8	·
Cc1ccc2cc(C#N)c(N3CCCN(S(=O)(=O)c4ccccc4)CC3)nc2c1	-13	6	i	4	10	-43	18	-7
O=c1c2ccc([N+](=O)[O-])cc2ncn1CCOc1ccccc1	1	2	i	-1	13	17	2	·
Cn1nc(C(=O)N2CCCc3ccccc32)c2ccccc2c1=O	1	4	i	-9	-6	2	10	·
N#C/C(=C\c1ccc(O)cc1)C(=O)N1CCCC1	-2	-1	i	-4	-1	7	-15	-1
COc1ccccc1C1CC(c2ccccc2)=NN1C(=S)Nc1ccccc1 (stereo unspecified)	-1	-1	i	-13	-1	2	0	·
O=C(O)c1cc2ccccc2c(N=Nc2cccnc2)c1O	2	-4	i	-12	23	·	10	-19
O=C(O)c1cc(S(=O)(=O)N2CCOCC2)c(Sc2ccccn2)cc1Sc1ccccn1	-1	0	i	-4	·	·	23	·
O=C(COc1ncnc2sccc12)Nc1ccc(F)cc1F	7	11	i	8	-24	3	11	·
CC1CCN(c2nc3c(c(=O)[nH]c(=O)n3C)n2Cc2ccccc2)CC1	-4	-3	i	-17	-11	-14	0	0
CCCCNC(=O)c1ccc(SCC(=O)N(CC)CC)c([N+](=O)[O-])c1	-3	-1	i	-3	-12	11	-4	-16
Cc1cc(C)c2nc(SCC(=O)Nc3ccccc3N3CCOCC3)c(C#N)cc2c1	-13	-5	i	·	11	-60	·	-8
CC(=O)c1nn(-c2cccc(Br)c2)cc1C(=O)c1ccc(C)cc1	-2	-4	i	-3	0	-30	-2	-20
CC1(c2cc([N+](=O)[O-])cc([N+](=O)[O-])c2)CC(C)(C)N(C(=O)c2ccccc2)c2ccccc21 (stereo unspecified)	-11	-17	i	-2	22	-46	-13	-6
CCOc1cc(/C=C\[N+](=O)[O-])ccc1OCC(=O)Nc1ccccc1C	-30	-36	i	-3	76*	·	4	-16
Cn1nnnc1SCC(=O)N1CCOCC1	0	-4	i	-3	12	-5	6	·
O=C(CN1CC(c2ccccc2)CC1=O)OCc1cccc(Br)c1 (stereo unspecified)	2	3	i	0	-11	0	-1	-10
CCOC(=O)c1ccc(NC(=O)CNC(=O)c2ccco2)cc1	-5	0	i	6	-5	-5	8	9
CNC(=O)c1cc(NC(=O)CCn2nc(-c3ccccc3)c3ccccc3c2=O)ccc1OC	1	4	i	-6	-16	10	-2	·
NNC(=O)c1sccc1OCc1cccc(C(F)(F)F)c1	6	-1	i	9	·	18	11	·
O=C(CN1C(=O)NC2(CCOc3ccccc32)C1=O)c1cccs1 (stereo unspecified)	-2	1	·	·	-9	6	·	·
CCOc1ccc(C(C(=O)Nc2ccc(F)cc2)N(C(=O)Cn2nnc3ccccc32)C2CC2)cc1 (stereo unspecified)	-6	-8	i	0	-8	·	-6	4
O=[n+]1cc(-c2cccc3ccccc23)n([O-])c2c1CCC2	-2	1	i	4	-9	·	5	-25
Cn1nc(C(=O)NC2CCCc3ccccc32)ccc1=O (stereo unspecified)	1	0	i	11	9	5	-11	·
O=C(CN1CCN(c2ccccc2F)CC1)c1ccc(O)c(O)c1	-9	-7	i	-1	15	-22	17	13
CN(C)c1ccc(C(=O)OCC(=O)Nc2ccc(N3CCOCC3)cc2)cc1	0	-2	·	-6	-9	5	2	-12
COc1ccc(C(=O)N2CCCC(O)C2)cc1OC1CCN(C(C)C)CC1 (stereo unspecified)	-1	6	i	-3	-13	·	1	9
O=C(c1ccco1)N(Cc1cccc(Br)c1)C1CCS(=O)(=O)C1 (stereo unspecified)	-1	1	i	-2	-4	-4	-3	-8
CN(/N=C/C=C/c1ccccc1)C1=NS(=O)(=O)c2ccccc21	-1	1	i	1	-1	16	-5	·
O=C(C1CCCCC1)N1CCC(O)(c2ccc(Cl)cc2)CC1	0	3	i	-1	-3	·	4	3
CCC(CC)c1nn2c(N)c(/C=C3\C=Nc4ccccc43)c(=O)nc2s1	0	-2	i	-3	15	5	-6	-9
